H5N1 CPE: MDCK cell protection from H5N1 avian flu; inhibition, % at 50 µM; cytopathic effect, luminescence, 72 h; hits give high values; no value below 0 was filed and about half of the inactive calls have no number; reference of the scale not given here; AID 740; actives 0.07% (n = 96,000); in the data active = inhibition above about 25%
An asterisk follows results filed as active; i = inactive.

SMILES | H5N1 CPE
COc1ccc2[nH]c(=O)c(C(c3nnnn3C(C)(C)C)N(Cc3ccco3)CC3CCCO3)cc2c1 (configuration not stated) | i
CC(=O)Nc1ccc(SCC(=O)c2cc(C)n(Cc3cccs3)c2C)cc1 | 2.6
CCOC(=O)C1C(=O)CC(C)(O)C(C(=O)OCC)C1c1cccs1 (configuration not stated) | 1.9
CN(C)c1ccc(N=c2sc3ccccc3n2C)cc1 | i
CCCOC(=O)c1ccc(Oc2c(-c3ccc(OCC)cc3O)n[nH]c2C)cc1 | i
Cc1ccc(N(CC(O)CN2CCOCC2)S(=O)(=O)c2ccc3ccccc3c2)cc1 (configuration not stated) | i
NS(=O)(=O)c1ccc(CNC(=O)NC2(c3ccccc3)CC2)cc1 | i
COc1cc2c(cc1OC)C1=NC(=O)CN1C(SCc1ccccc1C)=N2 | 1.8
Cn1c(CSc2ncccn2)nnc1SCC(=O)N1CCCCC1 | 0.6
CCN(CC(=O)NCc1ccc(F)cc1)Cc1nc2cc(Cl)ccc2c(=O)[nH]1 | i
COc1ccc(Cn2nnnc2C(c2cccs2)N2CCCCCC2)cc1 (configuration not stated) | 4.0
COc1ccc(NC(=O)C2C3C=CC(C3)C2C(=O)NCc2ccco2)cc1 (configuration not stated) | 0.7
COc1ccc(S(=O)(=O)CCC(=O)O)cc1 | 0.1
O=C(Cc1c(O)c2ccccc2[nH]c1=O)NCc1ccccc1 | i
Cc1ccsc1/C=N/n1c(-c2ccco2)n[nH]c1=S | 2.7
Cc1c(-c2ccco2)[n+](=O)c2c(n1[O-])CCC2 | 0.2
Cc1cc(=O)oc2cc(OC(C)C(=O)O)c(Cl)cc12 (configuration not stated) | 0.9
O=C(COc1ccc(S(=O)(=O)NC2CCCCC2)cc1Cl)Nc1ccc2c(c1)OCO2 | 0.4
CCOC(=O)c1[nH]c2ccc(F)cc2c1NC(=O)C1=COCCO1 | i
CSCc1cc(N2CCOCC2)nc(SCc2ccc(Cl)c(Cl)c2)n1 | 1.1
Cc1ccccc1N1CCN(c2ncnc3c2cnn3Cc2ccc(Cl)cc2)CC1 | i
CC(C)c1nc2n[nH]c(N)c2c2c1CCC2 | 0.3
O=C1C(Cl)=C(N2CCOCC2)C(=O)N1CCc1ccccc1 | 0.5
CCC(C)Sc1nc2c(cnn2-c2ccc(C)c(C)c2)c(=O)[nH]1 (configuration not stated) | 2.7
CC(=O)Nc1ccc(NC2(C)C(=O)c3ccccc3C2=O)cc1 | 0.0

(more compounds)
SMILES | H5N1 CPE
CCN(CC)S(=O)(=O)c1cccc2cccnc12 | 0.2
O=C(OCCN1CCOCC1)c1cccs1 | 1.5
CCn1c(=NC(=O)CSC(C)=O)sc2cc(F)ccc21 | 0.7
COc1ccc(N2CCN(C(=O)Cc3ccc(-n4c(=O)[nH]c5ccccc5c4=O)cc3)CC2)cc1 | i
c1ccc(CNC2=NCCCCC2)cc1 | 0.1
CCNC(=O)CC1C(=O)N(c2ccc(C)cc2)C(=O)N1CCc1ccc(OC)c(OC)c1 (configuration not stated) | 0.5
CCOC(=O)N1CCC(NC(=O)CSCc2cnn(-c3ccccc3)c2-n2cccc2)CC1 | i
Cc1cc(C)nc(Nc2n[nH]c(-c3ccccc3Br)n2)n1 | i
Cc1cc(C)c2c(=O)[nH]c(SCC(=O)NCc3ccccc3)nc2n1 | 0.5
O=C(Cn1c(CN2CCCCC2)nc2ccccc2c1=O)NC1CCCCC1 | i
Cc1cc(NC(=O)CSC2=NCCS2)no1 | 1.5
O=C(Nc1cccnc1)c1scc2c1OCCO2 | i
O=C(Cn1cnc2ccccc2c1=O)Nc1nnc(SCc2ccccc2)s1 | 1.6
CCc1nnc(NC(=O)C(=O)NCCOC(=O)c2ccccc2)s1 | i
COc1cccc(C(=O)NC2CCN(C(=O)N3CCCCC3)CC2)c1 | i
CCOC(=O)c1sc(NC(=O)c2cccs2)nc1C | i
CC(c1cccs1)N(Cc1ccco1)C(=O)Nc1ccc(Cl)c(Cl)c1 (configuration not stated) | 1.8
COc1ccc(NC(=O)c2cnc3sccn3c2=O)cc1 | 0.6
Cc1cc(C(=O)NN)c2cc(Br)ccc2n1 | 0.1
COc1ccc(CNC(=O)Cc2ccc(OC)c(S(=O)(=O)N3CCOCC3)c2)cc1 | 0.5
CCOc1ccc2[nH]c(=S)[nH]c2c1 | 0.5
Cc1cccc(C)c1OC1(c2ccccc2)OC(=O)c2ccccc21 (configuration not stated) | 0.5
O=C(O)c1n[nH]c2c1CCCC2 | i
O=C(O)CN=C(NS(=O)(=O)c1ccc(Cl)cc1)c1ccccc1 | 0.4
CC(C)CCN1C(=O)c2ccc(C(=O)NCc3ccco3)cc2C1=O | i

Next structures
SMILES | H5N1 CPE
CC(CNC(=O)C(C)C)NC(=O)C(C)C (configuration not stated) | i
Clc1ccc(Cn2ncc3c(NCc4ccco4)ncnc32)c(Cl)c1 | i
Cc1ccc(NC(=O)c2ccccc2Cl)c(Cl)c1 | 0.6
CC(=O)OC(C(=O)NC1CCCCC1)c1ccc(Cl)cc1 (configuration not stated) | 1.1
COc1ccccc1N1CCN(C(=O)Cn2c(=O)[nH]c3ccsc3c2=O)CC1 | 0.8
Cc1sc(NC(=O)C2CC=CCC2C(=O)O)c(C(=O)OC(C)C)c1C (configuration not stated) | i
CN(Cc1ccccc1)C(=O)CCn1c(=O)oc2ccccc21 | 0.2
Cc1noc(C)c1S(=O)(=O)N1CCCC(C(=O)N2CCC(C)CC2)C1 (configuration not stated) | i
Cc1cc(N2CCCC2=O)cc(C)c1S(N)(=O)=O | 2.5
O=C(O)CCC(=O)Nc1ccc(Br)c(Cl)c1 | i
CCSc1cnn(-c2ccccc2)c(=O)c1SCC | i
N#Cc1c(NC(=O)COC(=O)C2CC3C=CC2C3)oc(-c2ccccc2)c1-c1ccccc1 (configuration not stated) | 0.7
O=C1C(=O)N(CCN2CCOCC2)C(c2ccccn2)/C1=C(/O)c1ccc(F)cc1 (configuration not stated) | 0.1
CCn1c(SCc2nc3ccccc3[nH]2)nnc1-c1ccccc1OC | 0.7
COc1ccc(C(=O)n2cnc(N)n2)cc1 | 0.1
Cc1ccc(NC(=O)C2(S(=O)(=O)c3ccc(C)cc3)CC2)cc1 | i
COc1ccc(S(=O)(=O)Nc2ccc3ccccc3c2)cc1C | 1.1
N#CC(C(=O)O)=C1CCCC1 | 0.5
Cc1c(NC(=O)/C=C/c2cccs2)c(=O)n(-c2ccccc2)n1C | 0.6
Cc1nc2ccccn2c1C(=O)CSc1ccc(Cl)cc1Cl | i
N#Cc1ccc2ccn(CC(=O)NC3CCCCC3)c2c1 | i
Cc1ccnc(N2CCC(C(=O)Nc3ccc4c(c3)OCO4)CC2)n1 | i
COc1ccccc1-c1nnc(SCC(=O)N2CCOCC2)n1-c1ccccc1 | 1.4
c1ccc(CCn2nnnc2C(c2cccs2)N2CCN(Cc3ccc4c(c3)OCO4)CC2)cc1 (configuration not stated) | i
COc1ccc(C2=Nn3c(nnc3C3CCCCC3)SC2)cc1OC | 1.1

The listing continues.
SMILES | H5N1 CPE
Brc1ccc2nc(CSc3ncn[nH]3)cn2c1 | 0.5
OCCn1c(-c2ccc3c(c2)OCO3)csc1=Nc1ccccc1 | 1.8
O=C(CSc1nnc(-c2ccccc2)n1-c1ccccc1)NCc1ccco1 | i
N=c1ncn(CC(O)CO)c2nc(N3CCOCC3)[nH]c12 (configuration not stated) | 0.6
O=C(c1n[nH]c(=O)c2ccccc12)N1CCN(c2ccc(F)cc2)CC1 | 1.3
CCOC(=O)C1CCN(C(=O)COC(=O)CCOc2ccc(C)cc2)CC1 | 1.9
Nc1cc(C(=O)O)ccc1N1CCCCCC1 | 1.6
COC(=O)CNC(c1ccccc1)c1cc(Br)ccc1NC(=O)OCc1ccccc1 (configuration not stated) | 0.4
FC(F)(F)C(F)(F)C(F)(F)c1nnc2ccc(N3CCOCC3)nn12 | i
CC(C)COC(=O)N1CCCC1C(=O)Nc1nccs1 (configuration not stated) | 0.4
O=C(NCc1ccccc1)c1ccc(C(=O)N(C2CCCCC2)C2CCCCC2)cc1 | i
Cc1ccc(NC(=S)Nc2ccc(Br)cc2)cc1 | i
COCCn1c(CN2CCN(C)CC2)nc2c1c(=O)n(C)c(=O)n2C | 0.3
CCOc1ccccc1NC(=O)C1=C(C)NC(=O)NC1c1cccc(OC)c1OC (configuration not stated) | 0.1
Cc1ccc2cc(C)c(SCC#N)nc2c1 | 0.8
CCCN1C(=O)/C(=C/c2c(NCCCOC(C)C)nc3c(C)cccn3c2=O)SC1=S | 0.1
CCC(C)c1ccc(OCC(=O)Nc2ccc(Cl)cn2)cc1 (configuration not stated) | 0.8
CC1CCC2(CC1)NC(=O)N(CC(=O)c1ccc[nH]1)C2=O (configuration not stated) | i
CCOC(=O)c1cc2c(ccn2C)n1Cc1cc(C)ccc1C | i
N#Cc1c(C(F)(F)F)cc(-c2ccc(Cl)c(Cl)c2)nc1SCCN1CCOCC1 | 0.1
Cc1ccc(O)c(NC(=O)c2cc3nc4c(c(C(F)(F)F)n3n2)CCc2ccccc2-4)c1 | 0.6
COc1ccc(CNC(=O)c2cccs2)cc1 | 1.1
COc1ccc(OC)c(-n2cnc3cc(C(=O)NCCCN4CCOCC4)ccc32)c1 | i
COc1ccc(CNC(=O)C(NC(C)=O)C(=O)Nc2ccc(OC)cc2)cc1 (configuration not stated) | i
O=C(CCN1CCc2ccccc21)c1ccc2c(c1)OCCO2 | i

Going on with the list.
SMILES | H5N1 CPE
CCCn1c(CCC(=O)O)ccc1-c1cccs1 | 0.3
O=C(CCCOc1ccccc1)N1CCCc2ccccc21 | i
CN1CC2(C(=O)c3ccccc3)CN(C)CC(C(=O)c3ccccc3)(C1)C2 | 0.6
O=C(COc1ccccc1)NC(NC(=S)Nc1ccccc1C(=O)O)C(Cl)(Cl)Cl (configuration not stated) | i
Cc1cc2c(c(=O)n1CCN(C)C)C(c1ccc(Br)cc1)C(C#N)=C(N)O2 (configuration not stated) | 0.2
O=C(c1ccco1)N1CCN(C(=O)c2cccc3c2C(=O)N(Cc2cccnc2)C3)CC1 | 1.2
CCCCOc1ccc(-c2nnn(CC(=O)NCCc3c[nH]c4ccccc34)n2)cc1 | 0.4
Cc1cccc(-n2nnc(C(=O)NCc3ccccc3)c2N)c1 | i
O=C(CNS(=O)(=O)c1cccc2nsnc12)NC1CCCCC1 | 0.5
CCc1ccccc1NC(=O)c1cccc(N2C(=O)C3C4CCC(C4)C3C2=O)c1 (configuration not stated) | i
O=C(COc1ccccc1Cl)Nc1cc(Cl)ccc1Oc1ccccc1 | 1.0
O=C(/C(=C/c1ccc(Cl)cc1)c1nc2ccccc2[nH]1)c1ccccc1 | i
COC(=O)C(NC(=O)c1ccco1)(Nc1nc(C2CC2)cs1)C(F)(F)F (configuration not stated) | 1.2
O=C(O)c1ccc(COc2ccc3ccccc3c2/C=C2/NC(=O)N(c3ccccc3)C2=O)cc1 | i
Cc1nc2nc(SCC(=O)N3CCOCC3)nn2c(C)c1Cc1c(F)cccc1Cl | 4.0
CC1CCC(Nc2nnnn2-c2ccccc2)CC1 (configuration not stated) | i
C=CCOC(=O)C1=C(C)N(C)C(=O)NC1c1cc2c(cc1Br)OCO2 (configuration not stated) | 0.1
O=C1c2ccccc2C(Nc2ccc3c(c2)OCCO3)N1Cc1ccc2c(c1)OCO2 (configuration not stated) | i
CC(=O)c1cnc(Nc2ccccc2)s1 | 2.1
CN(C)c1ccc(NC(=O)Nc2ccc3snnc3c2)cc1 | i
CCOC(=O)c1cnc2ccc(OC)cc2c1Nc1ccc2c(c1)OCCO2 | i
COc1ccc(C(=O)Cn2nnc(-c3ccccc3NC(=O)C(F)(F)F)n2)cc1 | i
Cc1nn(-c2ccccc2)c(N2CCCC2)c1/C=N/n1cnc2scc(-c3ccccc3)c2c1=O | 1.3
CSC1=N/C(=C\c2ccc(F)cc2)C(=O)S1 | i
COc1ccccc1CNc1ccc(N2CCCCC2)cc1 | i

Following part:
SMILES | H5N1 CPE
CCOc1cc(NC(=O)c2ccco2)c(OCC)cc1NC(=O)Cc1ccc(OC)c(OC)c1 | 0.1
CC(C)NC(=O)CSc1nnc(-c2ccc(S(=O)(=O)N3CCCC3)cc2)n1CC1CCCO1 (configuration not stated) | i
Cn1cc(S(=O)(=O)Nc2cccc(F)c2)c(=O)n(C)c1=O | 0.6
CCCCn1c(O)c(C(C)=Nc2cccc(C(=O)O)c2)c(=O)[nH]c1=O | 0.5
COc1ccc(N2CCN(c3oc(-c4ccc(OC)c(OC)c4)nc3C#N)CC2)cc1 | 1.5
CCOC(=O)c1c(C)nc(-c2ccccc2)nc1N | 0.7
O=C(Nc1ccccc1C(=O)NCCCn1ccnc1)c1ccccc1 | i
COc1nc(-c2ccccc2)ccc1-c1noc(-c2cccnc2)n1 | 0.4
O=C(Nc1ccc(OC(F)F)c(Cl)c1)c1cccc(OC(F)F)c1 | 6.8
CC(C)CCNC(=O)c1cc(-c2ccco2)nc2ccccc12 | i
CC1(C)Cc2c(sc3nc(SCC(=O)NCc4ccco4)n(-c4ccccc4)c(=O)c23)CS1 | 0.8
N#Cc1nc(-c2ccccc2)oc1N1CCCCC1 | 1.2

Assay outcomes from PubChem BioAssay.

Only part of the results is shown; count on the stated rates, not on these rows.
